Sfp inh: blocks B. subtilis Sfp PPTase activity; Q9F4F7; Potency, µM, without a hit: max response, negative = inhibition, hits mostly inhibitors; Biochemical Sfp PPTase activity, qHTS; actives 3.5% (n = 310,000); active = well fitted inhibition curve with a large enough effect; inconclusive = small, poorly fitted or top-dose-only effect, or another doubt; inactive = no such curve, though single readings can be large or run the other way;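 also: the enzyme is Sfp with the accession as filed and its product quenches rhodamine fluorescence; potency is read from the fitted curve at half-maximal effect; 0% = enzyme reaction without inhibitor and -100% = no enzyme wells; top concentration of the series not given in the record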
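Sfp 15 nM + cpd, 15 min RT; start w/ rhodamine-CoA 5 uM, BHQ-2-YbbR 12.5 uM (final); 50 mM Hepes pH 7.6, 10 mM MgCl2, 0.01% NP-40, 0.01% BSA; read 525/598 nm at 0 and 30 min.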
D2 PAM: positive allosteric modulators of human D2 dopamine receptor; DiscoveRx D2 beta-arrestin cells, luminescence, 90 min; 100% = 57 uM dopamine signal; potentiation, % (test concentration not listed); actives 0.23% (n = 360,000); active = potentiation of 50% or more; inconclusive = 30% to 50%; inactive = 30% or less;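 also: compound concentration not given in the record; tested on top of an EC20 dose of dopamine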
Target sequence (P14416 whole entry, looked up): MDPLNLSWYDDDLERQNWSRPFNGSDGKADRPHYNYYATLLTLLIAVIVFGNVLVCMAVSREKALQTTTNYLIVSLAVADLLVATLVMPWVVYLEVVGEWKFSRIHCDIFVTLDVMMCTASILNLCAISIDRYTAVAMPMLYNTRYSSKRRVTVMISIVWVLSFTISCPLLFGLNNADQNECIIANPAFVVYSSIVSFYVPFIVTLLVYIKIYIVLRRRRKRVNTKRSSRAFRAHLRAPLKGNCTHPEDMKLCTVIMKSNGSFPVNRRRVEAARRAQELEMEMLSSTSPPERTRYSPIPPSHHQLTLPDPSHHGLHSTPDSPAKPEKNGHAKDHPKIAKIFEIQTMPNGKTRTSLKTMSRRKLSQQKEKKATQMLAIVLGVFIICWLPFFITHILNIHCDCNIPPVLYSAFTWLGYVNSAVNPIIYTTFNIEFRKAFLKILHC
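PathHunter beta-arrestin assay in DiscoveRx D2 cells. Compounds were added with an EC20 of dopamine (50 nM final) for 90 min at 37 deg C. Luminescence was read 1 h after detection reagent, with 57 uM dopamine as the EC100 control.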
CtBP-E1A blk: blocks the CtBP interaction with E1A. activity change, % (concentration not given with the values). AlphaScreen GST-E1A/His-CtBP binding, 1536-well; hits give low values; control for the full effect not named in the record. actives 0.49% (n = 340,000); in the data active means activity change below about -65%; inconclusive means about -30% to -65%; inactive means above about -30%; also: % is scaled to controls: 0 for no effect and ±100 for the full control effect
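GST-E1A and His-tagged CtBP (125 nM each as 5X stock) were preincubated with pin-transferred compound for 2 h at 37 °C in the dark, then glutathione donor and nickel acceptor beads were added for 1 h before AlphaScreen reading.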
PINK1 modulator: changes PINK1 expression; PINK1 immunofluorescence, high-content cytometry, 24 h; Potency, µM (titrated, usually from 76.6 µM), for inactives: at the top dose activation (PINK1 increase), hits mostly activators; actives 0.2% (n = 410,000); AID 624263; active = well fitted activation curve with a large enough effect; inconclusive = small, poorly fitted or top-dose-only effect; inactive = flat fitted curve, though single readings scatter; cell line not stated here;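 also: potency is read from the fitted curve at half-maximal effect; % of control where 0% means no effect; nearly all actives have a fitted effect of over 65% in size; a mitochondrial uncoupler was the plate control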
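Cells are seeded, rested 12 hours, then given compound at five concentrations or DMSO for 24 hours. After fixation, blocking and antibody staining, PINK1 amount and mitochondrial localization are scored; CCCP serves as control.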
D2 ag: human D2 receptor agonism in beta-arrestin assay | P14416 | DiscoveRx PathHunter D2 beta-arrestin, luminescence, 90 min; 100% = 57 uM dopamine signal | activation, % (no concentration beside the values) | actives 0.084% (n = 360,000) | AID 624465; in the data active = activation above about 40%; inconclusive = about 15% to 40%; inactive = below about 15%; also: compound concentration not given in the record; the text of the record calls up to 30% inactive
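DiscoveRx PathHunter D2 beta-arrestin cells (2,100/well) attached overnight, then compound-stimulated 90 min at 37 C in HBSS/10 mM HEPES/0.1% Tween-20 buffer; beta-galactosidase complementation read by luminescence after 1 h at ambient temperature. Dopamine 57 uM final (EC100) as control.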
Six1-Eya2 inh: blocks human Six1 binding to Eya2. Q15475+O00167. actives 0.56% (n = 360,000). AlphaScreen GST-Six1/His-Eya2 binding, biochemical; hits give low values; control for the full effect not named in the record. activity change, % (no concentration beside the values); in the data active = activity change below about -65%; inconclusive = about -30% to -65%; inactive = above about -30%; also: % is scaled to controls: 0 for no effect and ±100 for the full control effect; compound concentration not given in the record
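AlphaScreen luminescence read after one hour at 37 °C in darkness. Pin-transferred compounds met GST-Six1 and His-Eya2 protein (5X stock 250 nM/500 nM) plus glutathione donor and Ni-chelate acceptor beads (5X, 50 ug/mL).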
TRPV1 PAM: potentiators of human vanilloid receptor 1 (TRPV1). TRPV1-expressing cells, Fluo-8 calcium influx, capsaicin EC20 potentiation; host cell line not named in the record; control for the full effect not named in the record. potentiation, % at 8.33 µM. actives 0.02% (n = 320,000); active means potentiation above 80%; inconclusive means 30% to 80%; inactive means below 30%; also: 0% is about no effect
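TRPV1-expressing cells were cultured overnight at 35.5C and loaded with Fluo-8 calcium dye for 40 to 90 min at room temperature. After a 10 s baseline, compound was added and calcium influx was read kinetically for 3 min (ex 480/em 520 nm).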
An asterisk follows results filed as active; ? = inconclusive; · = no result given; [ ] = another dose, or the depositor's remark.

The opening four records, ahead of the listing:
SMILES	Sfp inh	D2 PAM	CtBP-E1A blk	PINK1 modulator	D2 ag	Six1-Eya2 inh	TRPV1 PAM
O=C(CSc1nnc(Cc2cccs2)n1Cc1ccco1)Nc1ccc(Br)cc1	14µM*	-13	-4	-2.9%	-3.9	-1	8
CCOc1ccc(Cc2nnc(SCC(=O)Nc3ccc(C(C)=O)cc3)[nH]c2=O)cc1	·	-3	-18	0.4%	-5.0	-14	9
CCCN1c2cccc3cccc(c23)S1(=O)=O	-3%	12	28	-0.3%	-0.6	30	1
O=C(NN1CCCCC1)NN1CCCCC1	·	-5	1	3.9%	3.8	2	·

The list itself, repeating the preview:
SMILES	Sfp inh	D2 PAM	CtBP-E1A blk	PINK1 modulator	D2 ag	Six1-Eya2 inh	TRPV1 PAM
O=C(CSc1nnc(Cc2cccs2)n1Cc1ccco1)Nc1ccc(Br)cc1	14µM*	-13	-4	-2.9%	-3.9	-1	8
CCOc1ccc(Cc2nnc(SCC(=O)Nc3ccc(C(C)=O)cc3)[nH]c2=O)cc1	·	-3	-18	0.4%	-5.0	-14	9
CCCN1c2cccc3cccc(c23)S1(=O)=O	-3%	12	28	-0.3%	-0.6	30	1
O=C(NN1CCCCC1)NN1CCCCC1	·	-5	1	3.9%	3.8	2	·
COC(=O)C1CCN(C(=O)COC(=O)c2cc(S(=O)(=O)N3CCOCC3)ccc2C)CC1	·	-16	3	-0.5%	-4.2	-1	·
NS(=O)(=O)c1ccc(NC(=O)CSc2n[nH]c(=O)n2C2CC2)cc1	·	-1	2	-0.3%	-3.6	-1	-26
Cc1cc(C)cc(OCCCCn2cncn2)c1	-21%	-1	-2	-1.7%	-3.6	9	14
Cc1ccc(S(=O)(=O)NC(=O)c2cccn2C)cc1	-9%	11	-7	-0.8%[38.3 µM]	0.2	2	11
COc1cc(CCC(=O)Nc2ccc(Cl)c(C(F)(F)F)c2)cc(OC)c1OC	-1%	12	3	2.3%	5.3	1	?
COc1ccc(OCC(=O)NCCNC(=O)c2ccccn2)cc1	7%	0	8	3.5%	-0.1	4	4
Cc1cccc(-n2[nH]c(C)c(C=Nc3ccc4[nH]c(=O)[nH]c4c3)c2=O)c1	1%	-8	-6	32µM*	-0.1	-3	27
O=C(/C=C/c1ccc([N+](=O)[O-])cc1)NCc1ccccn1	9%	?	9	-2.7%	0.7	2	-2
CC(=O)c1cccc(NC(=S)NC2CCCCCCC2)c1	-1%	-16	-4	-0.7%	1.8	0	-5
O=C(CN(CC1CCCO1)C(=O)c1nsc(Cl)c1Cl)NC1CCCC1 (centres undefined)	24%	-3	3	-1.3%	-1.9	5	-8
Cc1noc(C(=O)NC2CCCCC2)c1Cl	6%	-6	-2	-3.1%	-2.3	-1	1
CC(=O)NNC(=O)c1csc(-c2csc(C)n2)n1	?	-11	0	0.6%	0.1	12	·
CC(C)C1C(=O)N(Cc2cn(CCC3OCCO3)nn2)CCS(=O)(=O)N1Cc1ccc(-c2ccc(F)nc2)cc1 (centres undefined)	·	-4	-2	1.7%	-6.2	-1	·
O=C1c2cc(O)cc(O)c2C(=O)c2c1cc(O)c([C@@H](CO)CCO)c2O	·	-44	?	0.4%	-8.6	?	·
O=C(N/N=C/c1cccnc1)c1cc2ccccc2cc1O	-3%	-12	-8	0.5%	-6.7	-14	-1
O=C(NCC1COc2ccccc2O1)c1cn(Cc2ccc(F)cc2)nn1 (centres undefined)	4%	4	-2	-0.5%	1.6	-10	-7
O=C(CS(=O)(=O)c1ccccc1)Nc1ccccc1Br	·	-2	11	5.2%	0.9	10	·
COc1ccc(C(=O)NCC(=O)Nc2cccc(S(=O)(=O)NCc3ccco3)c2)cc1OC	-1%	-1	24	-0.6%	-1.0	4	-5
Cn1c(SCc2ccc(Cl)cc2)nc(C(F)(F)F)cc1=O	-2%	3	5	1.5%[38.3 µM]	0.0	8	4
CCCCn1c(-c2ccco2)nc2ccccc2c1=O	-24%	5	-5	1.2%	-4.7	-6	-11
CCCOC(=O)C[N+](C)(C)CCOC1CC2CCC1(C)C2(C)C (centres undefined)	-5%	-16	-1	0.8%	-1.0	-3	11
COc1ccc(/C=N/NC(=O)c2cccnc2)cc1COc1ccc([N+](=O)[O-])c(C)c1	6%	1	-23	1.8%	3.0	-13	·
COc1ccc(C(=O)O)cc1S(=O)(=O)Nc1cc(Cl)ccc1N1CCOCC1	·	-2	5	-0.8%	9.7	4	-7
N#Cc1ccccc1S(=O)(=O)N1CCN(CC(=O)Nc2ccccc2C(=O)NC2CC2)CC1	·	4	0	0.1%	1.0	3	3
O=C(Nc1ccc(S(=O)(=O)NC2=NCCCCC2)cc1)c1ccc2ccccc2n1	9%	2	-17	4.9%	-2.0	-10	1
Cn1c(=O)c2c(nc(SCCN3CCCCC3)n2Cc2ccccc2)n(C)c1=O	-1%	-23	-3	0.5%[38.3 µM]	-4.2	-8	-1

Next section; it opens with the 4 that closed the last part.
SMILES	Sfp inh	D2 PAM	CtBP-E1A blk	PINK1 modulator	D2 ag	Six1-Eya2 inh	TRPV1 PAM
COc1ccc(C(=O)O)cc1S(=O)(=O)Nc1cc(Cl)ccc1N1CCOCC1	·	-2	5	-0.8%	9.7	4	-7
N#Cc1ccccc1S(=O)(=O)N1CCN(CC(=O)Nc2ccccc2C(=O)NC2CC2)CC1	·	4	0	0.1%	1.0	3	3
O=C(Nc1ccc(S(=O)(=O)NC2=NCCCCC2)cc1)c1ccc2ccccc2n1	9%	2	-17	4.9%	-2.0	-10	1
Cn1c(=O)c2c(nc(SCCN3CCCCC3)n2Cc2ccccc2)n(C)c1=O	-1%	-23	-3	0.5%[38.3 µM]	-4.2	-8	-1
COc1ccc2[nH]c3c(=O)n(Cc4ccncc4)cnc3c2c1	12%	-1	-23	-0.3%	-7.3	-17	-4
COc1ccccc1N1CCN(C2CCCN(S(=O)(=O)c3cccc(Cl)c3)C2)CC1 (centres undefined)	-3%	-49	-23	-1.8%	-2.8	-16	-9
Cc1c(Cl)ccc2c(C(N)=O)cc(-c3ccccn3)nc12	4%	0	-1	0.0%	-0.1	1	4
CC(=O)c1c(C)[nH]c(C(=O)COC(=O)CCOc2ccc(C)cc2)c1C	·	16	0	1.0%	-2.3	4	-11
COc1ccc(S(=O)(=O)N/N=C(/C)c2ccncc2)cc1OC	-5%	-3	4	-0.9%	-1.5	6	6
CCN(CC(=O)Nc1ccc(N2CCOCC2)cc1)C(=O)Cc1ccccc1	·	-2	·	-0.4%	-0.8	6	-1
CCCCCCNCc1c(F)cccc1Cl	-7%	-14	4	3.4%	-3.4	11	-14
COc1ccc(F)cc1-c1cc(C(=O)NCc2ccccc2)[nH]n1	·	-16	1	-0.8%	2.7	1	·
COCC(C)NC(=O)c1ccccc1[N+](=O)[O-] (centres undefined)	0%	-6	1	-1.9%	2.8	10	-1
O=C(c1ccc2c(c1)OCO2)C1CCCN(Cc2cccc(C(F)(F)F)c2)C1 (centres undefined)	2%	-20	3	6.2%	3.8	-13	-21
COc1ccc(-n2cc3c(-c4cccc(Br)c4)nnc(C)c3n2)cc1	-2%	-7	·	0.1%	-4.1	-9	-8
Cc1ccc(S(=O)(=O)NCC(=O)N(CC(=O)NC2CCCCC2)Cc2ccco2)cc1	2%	-18	-3	-0.4%	-4.1	6	-1
CS(=O)(=O)Nc1cccc(NC(=O)c2cccc3c(-c4ccc(F)c(F)c4)coc23)c1	·	-8	0	0.6%	13	-14	·
COc1ccccc1NC(=O)CSc1nnc(C)n1Cc1ccccc1	0%	1	7	-1.8%[38.3 µM]	-4.5	3	-2
COc1ccc(NC(=O)CN(C)C(=O)c2ccc3c(c2)CC(c2ccccc2)OC3=O)cc1 (centres undefined)	·	-9	-2	10.0%	-1.2	0	·
O=C(NNC(=S)NCc1ccc(Cl)cc1)c1ccc2c(c1)OCO2	16%	-13	·	-0.3%	-1.7	-1	-5
Cc1cc(C)cc(C(=O)Nc2cccnc2Cl)c1	13%	2	3	-4.1%	1.1	1	?
COc1ccc(-c2coc3cc4oc(=O)c5ccccc5c4cc23)cc1F	-2%	-8	-2	1.7%	-2.5	4	9
COC(=O)C(NC(C)=O)(Nc1ccc(Br)cc1)C(=O)OC	3%	-7	14	?	-0.1	-1	11
O=S(=O)(Nc1cccc(CO)c1)c1cccs1	2%	-5	-10	-1.1%	-6.8	4	-3
O=C(NCc1ccc(Cl)cc1)C(=O)NCC(c1ccco1)N1CCOCC1 (centres undefined)	14%	-15	1	?	-1.4	22	5
CC(=O)Nc1nc(-c2ccccc2)nc(C)c1C(C)=O	11%	26	8	-1.0%	-0.7	1	-6
Cc1cccc(NC(=O)CNC(=O)COc2ccc(C(=O)c3ccc(F)cc3)cc2)c1C	9%	-13	5	12%	-0.5	12	4
Cc1ccc(C(=O)NCc2ccc3c(c2)CCO3)cc1C	4%	-9	9	1.2%	-4.3	4	-12
CCOC(=O)c1c(C)n(C)c2ccc(OC)c(NC(=O)c3cccs3)c12	-8%	-22	-5	-0.7%	-3.9	-4	-12
CCN1C(=O)[C@H]2[C@@H](c3ccc(C)cc3)N3C(=O)N(c4cccc(Br)c4)C(=O)[C@@]3(C)[C@H]2C1=O	·	-8	10	2.1%	0.6	8	·
CCOC(=O)C1CCN(C(=O)CN2C(=O)C(C(C)C)Oc3ccccc32)CC1 (centres undefined)	-2%	6	2	0.9%	-8.7	1	-18
COc1ccc(C(=O)O/N=C(\N)Cc2cccs2)cc1OC	-1%	26	0	1.5%	?	4	1
COCc1[nH]nc2c1C1(C(=O)Nc3ccc(F)cc31)C(C#N)=C(N)O2 (centres undefined)	12%	-13	0	-2.1%	1.7	0	·
COc1ccc(N=C2C(=Nc3ccc(OC)cc3)N(c3ccccc3)C(=S)N2C(=O)c2ccc(Cl)cc2)cc1	50µM*	-21	-6	·	-4.2	-20	-18
CCOC(=O)c1ccc(NS(=O)(=O)c2cccc3nsnc23)cc1	13%	-17	-1	-1.2%	-2.6	-1	-16
CN(CC(=O)NC(=O)NCc1ccccc1)CC(=O)Nc1ccc(Cl)c(Cl)c1	·	-2	-4	1.0%	1.9	-3	12

Compound activity from PubChem BioAssay.

Not a hit list; overall some 3.7% were active at least once.
